High-throughput results from PubChem.
LASV entry inh = Lassa virus entry inhibition; Lassa virus pseudotype entry inhibition, cell reporter; control for the full effect not named in the record; Potency, µM (series often up to 37.9 µM), inactives show top-dose activity change, negative = inhibition, hits mostly inhibitors; AID 540256; 300,000 tested, 1.2% active; active means well fitted inhibition curve with a large enough effect; inconclusive means small, poorly fitted or top-dose-only effect, or effect the other way; inactive means flat fitted curve, though single readings scatter; tested in HEK293 cells; note: % is set by controls: 0 for no effect and ±100 for the full control effect; nearly all actives have a fitted effect of over 50% in size; luciferase read-out
Cruzain noTriton = inhibitors of Trypanosoma cruzi cruzain without detergent; P25779; purified cruzain, Z-FR-AMC fluorescence, no detergent; 200,000 tested, 2.3% active; Potency, µM, for inactives: max response, negative = inhibition, usual class: inhibitors; AID 1476;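 note: plate controls were enzyme without inhibitor for no effect and buffer without enzyme for full effect; nearly all actives have a fitted effect of over 40% in size; top concentration of the series not given in the record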
Target sequence (P25779 123-467 limits assumed): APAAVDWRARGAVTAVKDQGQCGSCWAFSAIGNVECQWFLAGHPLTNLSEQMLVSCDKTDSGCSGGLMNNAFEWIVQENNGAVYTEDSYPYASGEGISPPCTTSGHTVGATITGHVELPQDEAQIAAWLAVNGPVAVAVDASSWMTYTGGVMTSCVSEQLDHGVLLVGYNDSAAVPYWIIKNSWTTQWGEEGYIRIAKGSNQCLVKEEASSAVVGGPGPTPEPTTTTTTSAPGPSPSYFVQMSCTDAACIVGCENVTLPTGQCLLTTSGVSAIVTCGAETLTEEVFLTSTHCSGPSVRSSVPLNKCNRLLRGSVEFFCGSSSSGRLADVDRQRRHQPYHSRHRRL
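Purified cruzain at 1.5 nM, pre-incubated 15 min with compound at room temperature in 100 mM sodium acetate pH 5.5, 5 mM DTT, 0.00005% Triton X-100. Reaction started with 2 uM Z-FR-AMC; AMC fluorescence increase over 60 s gives rate.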
RE007 growth inh = less growth of the S. pombe RE007 Vpr strain | 360,000 tested, 0.21% active | AID 651644 | S. pombe RE007 Vpr strain, BacTiter-Glo ATP luminescence, 24 h; control for the full effect not named in the record | Potency, µM (doses to about 92.2 µM), for the others: at the highest dose activity change, negative = less growth; active = well fitted falling curve with a large enough effect; inconclusive = small, poorly fitted or top-dose-only effect; inactive = no such curve, though single readings can be large or run the other way;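 note: % is set by controls: 0 for no effect and ±100 for the full control effect; nearly all actives have a fitted effect of over 50% in size; the assay follows cell death caused by Vpr and the record does not say whether a fall means rescue or toxicity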
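Fission yeast RE007 carrying one integrated HIV-1 vpr copy, seeded at OD 0.01 in PMG+AL medium with 23 nL pinned compound. Grown 24 h at 30 degrees; viability read by BacTiter-Glo luminescence after 5 min.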
StopGo reporter = lowers the luciferase signal of an FMDV 2A StopGo reporter | human cells with a luciferase reporter of 2A StopGo recoding; control for the full effect not named in the record | Potency, µM (top dose mostly 57.9 µM), for inactives: at the top dose signal change, negative = less light | 410,000 tested, 1.2% active; active = well fitted falling curve with a large enough effect; inconclusive = small, poorly fitted or top-dose-only effect; inactive = no such curve, though single readings can be large or run the other way; tested in HEK293T cells; note: % is set by controls: 0 for no effect and ±100 for the full control effect; nearly all actives have a fitted effect of over 45% in size; luciferase light after 4 h
MARV entry inh = Marburg virus entry inhibition. Marburg virus pseudotyped entry inhibition, cell reporter; control for the full effect not named in the record; about a third of the inactives were read at about 46 µM. Potency, µM (highest dose often 37.8 µM), inactives show at the highest dose activity change, negative = inhibition, most hits filed as inhibitors. 300,000 tested, 1.8% active. AID 540276; active = well fitted inhibition curve with a large enough effect; inconclusive = small, poorly fitted or top-dose-only effect, or effect the other way; inactive = flat fitted curve, though single readings scatter; tested in HEK293 cells; about a fifth of its hits are not listed in these tables; note: % is set by controls: 0 for no effect and ±100 for the full control effect; luciferase read-out
SARS PLpro yeast = inhibitors of SARS-CoV papain-like protease in yeast; S. cerevisiae expressing SARS-CoV PLpro, growth rescue; control for the full effect not named in the record; Potency, µM (doses to about 32.9 µM), without a hit: at the highest dose activity, positive = growth rescue; 330,000 tested, 0.19% active; AID 485353; active means well fitted rising curve with a large enough effect; inconclusive means small, poorly fitted or top-dose-only effect; inactive means no such curve, though single readings can be large or run the other way; note: 0% is about no effect; nearly all actives have a fitted effect of over 55% in size; growth read by luminescence after 48 h
Cruzain inh Det = blocks cruzain activity in presence of Triton detergent. 200,000 tested, 0.43% active. AID 1478. Potency, µM, for inactives: max response, negative = inhibition, hits mostly inhibitors. purified cruzain, Z-FR-AMC fluorescence, 0.01% Triton. P25779;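 note: plate controls were neutral wells for no effect and buffer without enzyme for full effect; nearly all actives have a fitted effect of over 40% in size; top concentration of the series not given in the record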
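Steps: dispense cruzain (1.5 nM final) in acetate buffer pH 5.5 with DTT and 0.01% Triton X-100; pin-transfer compounds; incubate 15 min RT; add Z-FR-AMC (2 uM final); read fluorescence every 30 s, using the 60 s intensity change.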
NS1 function inh = blocks influenza NS1 protein function; AID 2326; S. cerevisiae slowed by influenza A NS1, growth recovery by OD600; Potency, µM (highest dose often 46.1 µM), inactives show at the top dose activity, positive = more growth; 270,000 tested, 0.4% active; active means well fitted rising curve with a large enough effect; inconclusive means small, poorly fitted or top-dose-only effect; inactive means no such curve, though single readings can be large or run the other way; note: nearly all actives have a fitted effect of over 50% in size
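Growth recovery, yeast-based: influenza A NS1 expressed in S. cerevisiae causes slow growth, and suppressors are detected by OD600. The parent strain without NS1 is used as positive control.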
* hit, by the source's call; ? = inconclusive; / = not tested or not shown; & = joins results of further samples; [ ] = another dose, or the depositor's remark. Unless noted, calls come from the whole dose curve; as a rule, active = well fitted curve in the direction sought with a large enough effect; inconclusive = small, poorly fitted or top-dose-only effect, or another doubt; inactive = no such curve, though single readings can be large; an effect the other way counts as inactive or inconclusive. Potency is the fitted concentration of half-maximal effect.

SMILES | LASV entry inh | Cruzain noTriton | RE007 growth inh | StopGo reporter | MARV entry inh | SARS PLpro yeast | Cruzain inh Det | NS1 function inh
CN1C=C(C(F)(F)F)C=C/C1=C(\C#N)c1nnc2n1CCCCC2 | 2.2% | 0.1% | -1.2% | / | 6.7% | -2.3% | -0.1% | 2.7%
Cc1ccc(NS(=O)(=O)c2cccc(C(=O)NCC3CCCO3)c2)cc1 (stereo unspecified) | 10µM* | / | 12.0% | 12.2% | ? | 0.7% | / | /
CCCCn1c(SC(C)C(=O)NCC2CCCO2)nc2cc(C(=O)OC)ccc2c1=O (stereo unspecified) | 11.8% | / | -8.1% | -20.2% | -10.4% | -1.7% | / | /
O=C(CCCc1nc(-c2ccccc2)no1)NC1CCCC1 | 13.8%[46.1 µM] | / | -20.1% | -5.2% | -9.8%[46.1 µM] | -0.3% | / | -3.1%
CCOc1cc(C(=O)Nc2ccc(NC(C)=O)cc2)ccc1OCC(=O)N1CCCCC1 | ? | 1.7% | 1.0% | -10.2% | -0.9% | -11.0% | -4.3% | 6.9%
CN(C)N1C(N)=C(C#N)C(c2ccc(Cl)cc2)C2=C1CCCC2=O (stereo unspecified) | ? | / | -0.7% | -2.7% | ? | 0.6% | / | -1.0%
CC(=C1C(=O)c2ccccc2C1=O)N1CCN(CCN=CC2=C(O)CC(C)(C)CC2=O)CC1 | 2.1% | -4.0% | 0.5% | -4.3% | 17.5% | -16.2% | -6.2% | -1.0%
c1csc(-c2nn3cnnc3c3ccccc23)c1 | 2.8% | / | 2.3% | -16.9% | -27.8% | -4.0% | / | -0.9%
Cc1ccccc1-c1nn(-c2ccc(F)cc2F)cc1CNCCN(C)C | 7.3% | / | -22.3% | -2.7% | -6.8%[46.1 µM] | -1.6% | / | 7.8%
CC(C)CNC(=O)C(=O)NCCCN1CCOCC1 | 0.1% | / | 4.1% | -3.0% | ? | 0.4% | / | 2.9%
CC(=O)c1ccc(N2C(=O)N(Cc3ccccc3C#N)c3ccccc3S2(=O)=O)cc1 | -7.5%[46.1 µM] | -20.2% | / | -3.6% | / | / | -0.5% | /
O=C(O)C1(NS(=O)(=O)c2ccc(Cl)cc2)CCCCC1 | -3.1% | 0.5% | 8.1% | -8.7% | -0.7% | -3.0% | 1.8% | 7.4%
Clc1ccccc1CO/N=C1\CCCc2nonc21 | 16.5% | 4.9% | 4.3% | 17.6% | 20.9% | 5.5% | -4.1% | -1.7%
COc1cc(Cl)ccc1OCc1cc(C(=O)N(C)C2CC(C)(C)NC(C)(C)C2)no1 | ? | / | -1.8% | -14.5% | -28.0% | -4.3% | / | -4.8%
O=C(/C=C/c1ccccc1)NC(=S)Nc1ccc(CN2CCOCC2)cc1 | 1.5% | -3.9% | -18.9% | ? | ? | -1.5% | -11.9% | 13.2%
CCc1c(C)nc(Nc2nc(C)c3ccc(OC)cc3n2)[nH]c1=O | -10.0% | ? | 0.5% | / | -5.7% | -0.1% | -3.2% | 5.7%
Cc1nn(CC(=O)NCCN2CCCCC2C)c(=O)c2cc(-c3ccccc3)nn12 (stereo unspecified) | / | / | 2.3% | 0.4% | / | 5.3% | / | -6.4%
CC(=O)N1CCN(CC(=O)Nc2cc(F)ccc2C)CC1 | 2.1% | / | -3.0% | -5.3% | ? | 1.6% | / | -12.4%
CCCn1cc(CN2CCCC(CNC(=O)c3ccc(F)cc3)C2)c(C)n1 (stereo unspecified) | 5.4%[46.1 µM] | / | 0.0% | -2.5% | ? | -0.9% | / | 3.4%
COc1ccc(CCNc2nc(C)nc3c2oc2ccccc23)cc1OC | 12.6µM* | 5.6% | -6.5% | 17.8µM* | 12.6µM* | -7.8% | -1.9% | -74.9%
CCC(C)(C)NC(=O)CN(C(=O)CCC(=O)Nc1nccs1)c1ccccc1C | 4.1% | / | -13.8% | -1.4% | 4.5% | 4.9% | / | 3.2%
CCn1cc(C(=O)O)c(=O)c2cc(Br)ccc21 | 20.2% | -5.4% | -6.1% | -2.5% | 1.9% | 0.0% | 3.3% | -61.3%
CCN(CC)c1ccc(C2NC(=O)c3ccccc3N2)cc1 (stereo unspecified) | 6.31µM* | / | 5.3% | 11.2µM* | ? | / | / | /
CCn1c(O)c(C2=c3ccccc3=NC2=O)c2cc(Br)ccc21 | -36.4%[46.1 µM] | / | -28.7% | ? | ? | -1.9% | / | 4.2%
CCc1ccc(NC(=O)[C@H](NC(=O)[C@@H]2Cc3ccccc3CN2)c2ccccc2)cc1 | / | / | -8.4% | 4.3% | / | 1.0% | / | 9.1%
COc1cc(OC)cc(C(=O)NC(=S)NNC(=O)Cc2cccs2)c1 | -1.7% | -14.8% | 5.9% | -8.7% | ? | 18.6% | 8.6% | 4.6%
Cc1cc(C)c2c(c1)/C(=N/NC(=O)c1cc(C)oc1C)CCC2 | 0.7% | -16.1% | -13.5% | -1.9% | 0.7% | -2.2% | -1.0% | 2.9%
COc1ccc(C=C(NC(=O)c2ccccc2)C(=O)O)cc1OC | 15.7%[46.1 µM] | / | 21.4% | ? | 16.1% | / | / | /
O=C(O)CNC(=O)c1ccc(S(=O)(=O)N2CCOCC2)cc1 | 1.0% | 6.2% | 5.9% | -3.2% | 19.1% | 2.4% | 4.8% | -2.1%
Cc1cc(C(=O)N2CCN(c3cccc(Cl)c3)CC2)c2c(C)nn(-c3ccccc3Cl)c2n1 | -41.1%[46.1 µM] | ? | / | ? | ? | / | -1.8% | /
Cc1cc(S(=O)(=O)Nc2ccc(C(=O)O)cc2)c(C)c(S(=O)(=O)c2ccc(Cl)cc2)c1 | 1.1%[46.1 µM] | 3.3% | / | 25.1% | / | / | -7.1% | /
COc1ccc(/C=C2\SC(=S)N(CCC(=O)Nc3ccccn3)C2=O)cc1OC | 3.6%[46.1 µM] | / | 12.9% | -26.3% | 2.6%[46.1 µM] | 1.0% | / | 14.7%
CCC(C(=O)Nc1cc(C)ccc1C)n1c(=O)c(C(F)(F)F)nc2ccccc21 (stereo unspecified) | 25.6%[46.1 µM] | -1.4% | / | -3.6% | / | / | 0.3% | /
Cc1ccc(CNC(=O)CCn2cnc3ccccc3c2=O)cc1 | -27.7%[46.1 µM] | 10.6% | / | -24.2% | / | / | -1.4% | /
CSc1cccc(NC(=O)CN(C2CCCCC2)S(C)(=O)=O)c1 | -10.9% | -2.0% | -0.4% | -14.1% | -7.1% | -0.7% | -12.5% | -30.7%
COc1ccc(-c2nc(SCc3ccccc3)n(S(C)(=O)=O)n2)cc1 | -3.4% | 3.1% | 46.5%[3.69 µM] | -17.8% | -10.7% | -0.7% | -0.3% | -7.2%
CCc1c(C)nc2nncn2c1NCc1ccc(Cl)cc1 | -4.5%[46.1 µM] | 4.9% | / | ? | ? | / | -4.0% | /
O=C(c1ccccc1)C(O)(CN1CCCCC1)c1ccccc1 (stereo unspecified) | -11.0%[46.1 µM] | / | -13.4% | 6.0% | 0.3%[46.1 µM] | / | / | /
CCn1c(N2CCN(S(=O)(=O)c3ccccc3)CC2)nc2ccccc21 | / | / | -8.5% | -26.9% | / | -2.0% | / | -24.7%
Cn1c2ccccc2c2c(C(=O)N3CCN(c4cccc(Cl)c4)CC3)cn(C3CCCCC3)c(=O)c21 | ? | -7.3% | / | -21.5% | 7.08µM* | / | -3.1% | /
O=C(Nc1cc(Cl)ccc1-n1cncn1)C1CC1 | -0.7% | / | 16.6% | -11.6% | 7.9%[46.1 µM] | -3.9% | / | /
CC(=O)N1CCCc2ccc(NC(=O)c3ccc(C(F)(F)F)cc3)cc21 | 26.2%[46.1 µM] | 2.3% | / | ? | / | / | -5.2% | /
O=c1nc(-c2ccccc2)c2cc(Cl)ccc2[nH]1 | 17.6% | -5.7% | -0.3% | / | 9.0% | 0.1% | -5.8% | -2.8%
CCCCc1cc(=O)oc2cc(OCC(=O)N3CCc4ccccc43)ccc12 | -9.3% | -16.2% | 6.0% | -24.2% | 2.3% | 6.5% | -2.6% | 3.7%
CC(NC(=O)c1ccco1)C(c1cccs1)N1CCN(c2ccc(F)cc2)CC1 (stereo unspecified) | ? | 0.2% | 2.6% | / | ? | -21.1% | -0.9% | -41.1%
C=CCN(CC=C)C(=O)COC(=O)c1n[nH]c2ccccc12 | -10.2% | / | -3.0% | -1.8% | ? | 0.2% | / | /
O=C(C1CCCO1)N1CCN(S(=O)(=O)c2ccccc2)CC1 (stereo unspecified) | 35.0%[14.3 µM] | 4.8% | 10.1% | -5.8% | ? | -2.5% | 6.6% | 15.1%
CSc1n[nH]c2nc3c(c(=O)n12)C1(CCCCC1)Cc1ccccc1-3 | -5.0%[46.1 µM] | / | -1.9% | -24.3% | -0.5%[46.1 µM] | 0.2% | / | -1.3%
Cc1ccc(C2=NN(CC(=O)NCc3ccccn3)C(=O)CC2)cc1 | 4.3% | 1.8% | 8.4% | -19.1% | 7.0% | 10.4% | -2.7% | -4.7%
COc1ccc(NC(=O)c2ccco2)c2ccccc12 | / | / | -18.9% | 26.8% | / | -5.5% | / | -5.8%

Carrying on:
SMILES | LASV entry inh | Cruzain noTriton | RE007 growth inh | StopGo reporter | MARV entry inh | SARS PLpro yeast | Cruzain inh Det | NS1 function inh
Cc1cc(C)c(Cn2cnc(-c3ccc([N+](=O)[O-])cc3)c2)c(C)c1 | -16.4% | 3.2% | 10.7% | / | ? | 5.0% | -5.7% | -2.6%
COc1cccc(CC(=O)OCC(=O)NC(Cc2ccccc2)C(C)=O)c1 (stereo unspecified) | 5.0% | / | -3.6% | -12.0% | -8.1% | -1.8% | / | /
CC(C)(C)C1=Nn2c(nnc2-c2ccccn2)SC1 | 16.3% | 7.1% | 9.8% | -21.3% | 17.1%&17.1% | 7.0% | -1.8% | 19.3%
Cc1ccc(C(=O)O)cc1NC(=O)CN1C(=O)C2C3c4ccccc4C(Br)(c4ccccc43)C2C1=O (stereo unspecified) | 6.9% | ? | -7.1% | -18.1% | 5.4% | 2.9% | -6.9% | 20.5%
